# Source: PubChem (Fisher Drug Discovery Resource Center)
# NPYLR7 agonist – activates Aedes aegypti NPYLR7 receptor | HEK293T NPYLR7/Galpha15, GCaMP6s calcium fluorescence | activation, % at 10 µM | 270,000 tested, 0.15% active | AID 1259423; in the data active means activation above about 40%;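 further: 0% = vehicle and 100% = reference agonist at the receptor; some compounds past the cut are filed as inactive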
# NPYLR7 agonist max-min – recorded beside NPYLR7 agonist, whose call it bears; activation, %; measured here: Max-Min RFU normalised activation; some inactives read as strong as hits;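 span of the calcium signal over five minutes; 0% = vehicle and 100% = native peptide agonist; compound fluorescence can raise it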
# * marks the source's active call; other numbers are inactive results. Not all compounds are listed; count on the stated rates, not on these rows.
# Under each structure – NPYLR7 agonist, NPYLR7 agonist max-min
- N#CC(=C(O)COC(=O)CC1Sc2ccccc2NC1=O)c1nc2ccccc2[nH]1 (centres undefined)
→ -1, -4
- CC1c2cccn2CCN1Cc1cc(-c2cccs2)on1 (centres undefined)
→ 7, 15
- O=C1O[C@@H]2C[C@H]3C[C@@H]2[C@@H]1[C@H]3C(=O)N1CCN(C(=O)c2ccco2)CC1
→ 4, 1
- O=CN1N=C(c2ccccc2)CC1(O)C(F)(F)F (centres undefined)
→ -1, 2
- CC(=O)NC1=NC(=O)/C(=C/c2cc3c(cc2Br)OCO3)S1
→ -1, -3
- CC(CNC(=O)Cc1csc(-c2ccccc2)n1)n1cncn1 (centres undefined)
→ 12, 4
- O=C(Nc1nc(-c2ccco2)c(-c2ccco2)s1)c1ccco1
→ 1, 1
- CCC(CC)C(=O)N1CCN(Cc2cc(=O)c(OCc3ccc(F)cc3)co2)CC1
→ 22, 7
- COc1ccc(-c2nc[nH]c2-c2ccccc2)cc1Cn1cncn1
→ 0, -6
- c1ccc(-c2cnnc(N3CCN(C(c4ccccc4)c4ccccc4)CC3)n2)cc1
→ 9, 5

# The list goes on; the last 4 above are carried over.
# Under each structure – NPYLR7 agonist, NPYLR7 agonist max-min
- O=C(Nc1nc(-c2ccco2)c(-c2ccco2)s1)c1ccco1
→ 1, 1
- CCC(CC)C(=O)N1CCN(Cc2cc(=O)c(OCc3ccc(F)cc3)co2)CC1
→ 22, 7
- COc1ccc(-c2nc[nH]c2-c2ccccc2)cc1Cn1cncn1
→ 0, -6
- c1ccc(-c2cnnc(N3CCN(C(c4ccccc4)c4ccccc4)CC3)n2)cc1
→ 9, 5
- Cc1cccc2oc(=O)n(C3CCN(C(=O)c4ccc(F)c(F)c4)CC3)c12
→ 34, 30
- Cc1nnsc1CN(C)C(=O)c1cc2n(n1)CCCN(C)C2
→ -2, -3
- COc1ccc(OCC(O)CN(Cc2ccc(F)cc2F)CC2CCCO2)cc1 (centres undefined)
→ -3, 10
- O=C(CC1CSc2nc3[nH]ncc3c(=O)n21)Nc1ccc(F)cc1 (centres undefined)
→ 0, 23
- Cc1ccc(-c2nnc(SCCCCC(=O)N3CCC(Cc4ccccc4)CC3)n2-c2ccccc2)cc1
→ 3, 4
- CSc1nnc2c(n1)OC=Nc1ccc(Cl)cc1-2
→ 3, 3
- CC1(C)[C@H]2CC=C(CN3CCC(n4nccc4NC(=O)Nc4cccc(F)c4)CC3)[C@@H]1C2
→ -1, 0
- CC1C(=O)N(c2ccc3c(c2)CCC3)CCN1C(=O)c1cccc(Br)c1 (centres undefined)
→ -2, 0
- Cc1cc(CNC(=O)CCNS(=O)(=O)c2c(C)noc2C)ccc1F
→ 3, 0

# Entries of single compounds, quoted from the list.
# Cc1nnsc1CN(C)C(=O)c1cc2n(n1)CCCN(C)C2 is listed with NPYLR7 agonist = -2; NPYLR7 agonist max-min = -3
# CC1C(=O)N(c2ccc3c(c2)CCC3)CCN1C(=O)c1cccc(Br)c1 (centres undefined) is listed with NPYLR7 agonist = -2; NPYLR7 agonist max-min = 0

# Reprinted at random: two compounds from above
# Under each structure – NPYLR7 agonist, NPYLR7 agonist max-min
- O=C1O[C@@H]2C[C@H]3C[C@@H]2[C@@H]1[C@H]3C(=O)N1CCN(C(=O)c2ccco2)CC1
→ 4, 1
- CC1c2cccn2CCN1Cc1cc(-c2cccs2)on1 (centres undefined)
→ 7, 15
